Compound activity (PubChem BioAssay)
Bead autofluor: compound fluorescence in toxin protease inhibitor counterscreen | compound autofluorescence counterscreen, microsphere flow cytometry; stronger effect = higher value | 360,000 compounds, 3.1% hits | AID 624483 | fluorescence intensity (concentration not given with the values);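 active means at least 3 SD above the mean of all compounds, about 16000 in these data; inconclusive means too few beads counted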;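 further: 100 nL of 1 mM stock went into each well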
PrP 5UTR inh: suppresses PrP 5' UTR mRNA reporter expression; 340,000 compounds, 0.35% hits; inhibition, % (test concentration not listed); cell-based PrP 5' UTR mRNA reporter, plate reader;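 active means every replicate at 50% or more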;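 further: 0 = median of the neutral control wells; tested in H4 reporter cells; numbers are from one replicate; inactives centre near -14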
Mtb hypoxia rep: Mtb hypoxia fluorescent reporter inhibition | M. tuberculosis hypoxia-regulated fluorescent reporter, fluorescence | fluorescence inhibition, % (concentration not given with the values) | 300,000 compounds, 0.1% hits | AID 1159583;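 active means 35 to 45% if threefold the growth effect, above 45% if 1.5-fold the growth effect; inactive means the rest, general growth blockers included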;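 further: wells of about 50 µL received 100 nL stock; 0% = vehicle wells and 100% = reference inhibitor wells; whole bacteria with a GFP reporter of the hypoxia response; strong numbers were not always called active; many hits fall short of the cut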
RN4220 kill: kills Staphylococcus aureus RN4220 | S. aureus RN4220 growth, OD600, 16 h | inhibition, % (test concentration not listed) | 330,000 compounds, 0.33% hits | AID 1259311;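 active means z-score of -3 or lower and OD600 up to 0.18 on both plates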;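 further: plate controls were untreated cells for no effect and reference antibiotic for full effect; stock transfer was 100 nL into about 80 µL; one replicate is shown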
Sa ugtP lethal: kills S. aureus RN4220 lacking UgtP. S. aureus RN4220 ugtP deletion, OD600 growth, 16 h; some inactives read as strong as hits. growth inhibition, % (test concentration not listed). 330,000 compounds, 0.54% hits. AID 1259309;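 active means z-score under -3 and OD600 up to 0.15 on both plates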;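 further: plate controls were untreated wells for no effect and antibiotic for full effect; wells of about 80 µL received 100 nL stock; the first replicate is given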
BJeLR viability: BJeLR cell viability loss | BJeLR (HRASV12) viability, CellTiter-Glo ATP luminescence, 48 h; reference of the scale not given here | inhibition, % (no concentration beside the values) | 300,000 compounds, 0.17% hits | AID 1554;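 active means replicate mean above 50%; inconclusive means above 50% but judged a plate artefact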;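 further: 50 nL library stock added to about 25 µL; numbers are from one replicate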
Mtb hypoxia rep growth: second read-out of Mtb hypoxia rep, no call of its own (marks repeat the call); growth inhibition, %; measured here: M. tuberculosis growth (absorbance);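 0% = vehicle and 100% = reference antibiotic; read after six days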
Active calls of the source: *; u = inconclusive; x = no result given.

SMILES	Bead autofluor	PrP 5UTR inh	Mtb hypoxia rep	Mtb hypoxia rep growth	RN4220 kill	Sa ugtP lethal	BJeLR viability
CC(C)(C)C(=O)COC(=O)CNC(=O)c1ccc(Oc2ccccc2)cc1	x	-11	18	-29	-1.3	4	-1
Cc1c(Cc2ccccc2)c(=O)oc2c(C)c(OCC(=O)NCC3CCC(C(=O)O)CC3)ccc12 (stereo not drawn)	5292	-28	x	x	3.1	-5	6
CSC(=NNC(=O)c1ccccc1O)SC	3005	-16	x	x	x	x	0
COc1cc(C(=O)N2CCN(S(=O)(=O)c3cc(C)ccc3C)CC2)ccc1OCC(=O)N1CCOCC1	2746	10	-2	-5	7.2	12	x
CC(=O)Nc1cccc(NC(=O)c2ccccc2OCc2c(C)noc2C)c1	u	6	-1	3	3.2	0	-4
CC(Cc1ccccc1)NC(=O)CCCN1C(=O)c2ccccc2C1=O (stereo not drawn)	3444	-11	-2	-2	2.2	3	5
CCc1ccccc1NC(=S)N(CCN1CCOCC1)C1CCN(C(C)=O)CC1	3484	-25	1	2	2.8	1	20
COc1ccc(C(Nc2cccc([N+](=O)[O-])c2)P(=O)(OC(C)C)OC(C)C)cc1 (stereo not drawn)	4348	8	0	-4	3.4	-6	8
Cn1ncc2c(O/N=C(\N)c3ccc(C(F)(F)F)cc3)ncnc21	4359	0	x	x	x	x	-12
O=C(c1ccco1)N1N=C(c2cccs2)CC1c1ccco1 (stereo not drawn)	2598	-27	9	-3	4.1	-1	2
CC(CC(=O)O)CC(=O)Nc1ccc(S(N)(=O)=O)cc1 (stereo not drawn)	2889	-1	4	2	1.0	-2	-2
CCOc1ccc(N(CC(=O)NCc2ccc(F)cc2)S(=O)(=O)c2c(C)noc2C)cc1	5219	-23	x	x	2.6	-8	4

Four entries picked at random from those above, as already listed:
SMILES	Bead autofluor	PrP 5UTR inh	Mtb hypoxia rep	Mtb hypoxia rep growth	RN4220 kill	Sa ugtP lethal	BJeLR viability
CC(=O)Nc1cccc(NC(=O)c2ccccc2OCc2c(C)noc2C)c1	u	6	-1	3	3.2	0	-4
Cn1ncc2c(O/N=C(\N)c3ccc(C(F)(F)F)cc3)ncnc21	4359	0	x	x	x	x	-12
COc1cc(C(=O)N2CCN(S(=O)(=O)c3cc(C)ccc3C)CC2)ccc1OCC(=O)N1CCOCC1	2746	10	-2	-5	7.2	12	x
COc1ccc(C(Nc2cccc([N+](=O)[O-])c2)P(=O)(OC(C)C)OC(C)C)cc1 (stereo not drawn)	4348	8	0	-4	3.4	-6	8

(cont.)
SMILES	Bead autofluor	PrP 5UTR inh	Mtb hypoxia rep	Mtb hypoxia rep growth	RN4220 kill	Sa ugtP lethal	BJeLR viability
CCN1CCN(C(=O)CSCc2nc(-c3ccc(OC)c(OC)c3)oc2C)CC1	6338	-2	x	x	-0.7	-1	2
Cc1ccc(S(=O)(=O)NCCC(=O)NC2CCCC2)cc1	20213*	7	15	14	3.1	2	-1
COc1ccc2occ(NC(C)=O)c2c1	6640	-10	9	10	1.9	1	2
CCOC(=O)C(=O)C1=C(N2CCOCC2)/C(=C\c2cccc([N+](=O)[O-])c2)CC1	2507	-17	6	5	3.8	3	8
COc1ccc(-n2c(SCC(=O)/C(C#N)=C(\C)N)nc3ccccc3c2=O)cc1OC	x	-11	7	10	3.1	15	-2
CCOc1ccc(NC(=O)CN(C)C(=O)CN2C(=O)c3ccc([N+](=O)[O-])cc3C2=O)cc1OCC	5736	-3	4	4	2.8	4	x
CCOC(=O)C=C1CN(CCC(C)C)S(=O)(=O)c2ccccc21	x	x	8	-2	8.4	8	x
COc1ccccc1NC(=O)NCCN1CCN(c2cccc(Cl)c2)CC1	3747	-10	1	5	-1.5	3	-6
CCOC(=O)N1CCN(C(=O)C2CCN(S(=O)(=O)c3ccc(NC(C)=O)cc3)CC2)CC1	5324	-13	4	-10	0.7	6	-2
Cc1c(C#N)c(SCC(N)=O)nc2c1CCCC2	2529	0	x	x	1.8	3	-3
O=C(C1CCC1)N1CCc2cc(S(=O)(=O)NCCCN3CCCCC3)ccc21	6667	-15	6	2	-0.1	8	4
O=C(NCCc1ccc(F)cc1)Nc1ccccc1Cl	5359	-11	1	10	0.2	-1	x
CCOC(=O)C(NC(C)=O)(OCc1ccc(F)cc1)C(F)(F)F (stereo not drawn)	3977	-2	x	x	-2.7	-2	-4
CCOC(=O)N1CCN(S(=O)(=O)c2ccc3c4c(cccc24)C(=O)N3)CC1	5889	3	x	x	x	x	-1
CC(C)CC(NC(=O)c1nc[nH]c1C(=O)NC(c1ccccc1)c1ccccc1)C(=O)OC(C)(C)C (stereo not drawn)	x	x	9	7	-4.5	1	x
O=C(CN1C(=O)C2C3C=CC(C3)C2C1=O)NCc1ccccc1 (stereo not drawn)	10526	-31	5	2	1.7	-6	5
Cc1oc(-c2ccccc2F)nc1CS(=O)CC(=O)NCc1ccc(Cl)cc1 (stereo not drawn)	6038	-4	14	0	5.5	1	2
CN(Cc1n[nH]c(=S)n1C)S(=O)(=O)c1ccccc1	13167	-13	4	-1	0.1	-1	-13
COc1ccc2[nH]c3c(c2c1)CCN1C(=O)C(CC(=O)NCC24CC5CC(CC(C5)C2)C4)C[C@H](C(=O)N2CCOCC2)[C@@]31CCC1CCCC1 (stereo partly drawn)	4068	-6	-12	9	-10	-17	x
CC(=O)NCCc1ccc(S(=O)(=O)N(C)C2CCS(=O)(=O)C2)cc1 (stereo not drawn)	9849	x	6	3	1.4	5	7
COc1cccc(/C=N/NC(=S)Nc2cccc(C(=O)O)c2)c1	2776	-6	x	x	x	x	1
Cc1ccc(C(=O)NCCNC(=O)COc2ccc(Cl)cc2)cn1	3500	-20	10	3	1.3	-1	-7
COC(=O)c1cc(C(=O)N2CCOCC2)cc([N+](=O)[O-])c1	3338	-15	6	2	3.3	3	5
COc1cc(CN(C(=S)NCC(=O)NC2CC2)C2CCCC2)cc(OC)c1OC	6702	-8	-1	8	6.0	8	15
CC(C)C[C@H](NC(=O)[C@@H]1Cc2ccccc2CN1)C(=O)Nc1ccc(C(C)C)cc1	4853	6	-2	-2	6.8	8	1
O=C(COC(=O)C1CCCO1)Nc1cccc(C(F)(F)F)c1 (stereo not drawn)	3453	3	x	x	9.2	6	3
CC(C)C1O/C(=N/C(=O)Nc2ccc(Cl)c(Cl)c2)NC1=O (stereo not drawn)	6114	-11	8	-1	100*	100*	-5
CC(C)Oc1ccccc1/C=N/n1nnnc1N	4431	-21	x	x	x	x	-3
CC(C)(C)NC(=O)CN(C(=O)C1(C)CC(=O)N=C2C=CC=CN21)C1CCCC1 (stereo not drawn)	23762*	0	3	10	2.0	3	6
CN(C(=O)CSc1nnc(-c2ccncc2)n1Cc1ccccc1)C1CCS(=O)(=O)C1 (stereo not drawn)	3391	-17	12	-3	0.6	-75	0
COCC(=O)Nc1nc(-c2ccc([N+](=O)[O-])cc2)cs1	4556	-23	20	12	3.4	7	-9
Nc1c(C(=O)NCc2ccco2)c2nc3ccccc3nc2n1CCc1ccc(F)cc1	x	0	-3	-4	-2.0	13	-2
COc1ccccc1CNC(=O)C12CC3CC(CC(C3)C1)C2	4081	-29	9	7	5.1	7	-7
COCCCn1cc(C(=O)c2cc(OC)ccc2OCC(=O)Nc2cc(C)on2)cc(C#N)c1=O	2875	-11	7	6	5.0	6	-5
Cc1ccc(C(=O)NCC(c2ccco2)N2CCCCC2)s1 (stereo not drawn)	9489	1	0	1	1.8	3	x
CCOC(=O)N1CCN(CC(O)COc2ccc(-c3ccccc3)cc2)CC1 (stereo not drawn)	5830	-12	11	6	5.3	1	-4
COc1cc(S(=O)(=O)N2CCN(C(=O)c3ccccc3)CC2)c(OC)cc1Br	6105	-25	5	-4	7.2	18	-1
COc1ccccc1CNS(=O)(=O)c1ccc2c(c1)CC(C)N2C(=O)C1CC1 (stereo not drawn)	5194	-28	-6	1	8.2	-5	14
O=[N+]([O-])c1ccc(/C=[N+](\[O-])[C@@H]2CCCC[C@@H]2/[N+]([O-])=C/c2ccc([N+](=O)[O-])o2)o1	4634	-27	21	12	-1.1	9	3
COc1ccc(Br)cc1CNC(=O)Cc1cccs1	3568	-9	4	16	5.3	1	-4
CCOc1ccccc1NC(=S)N1CCC(NC(=O)C(C)(C)C)CC1	3322	-10	11	7	7.7	11	-6
CCCN(CCC)S(=O)(=O)c1ccc(C(=O)Nc2nnc(-c3cccc(OC)c3)o2)cc1	3058	21	-5	0	99*	100*	21
CCOC(=O)C1CCN(c2c([N+](=O)[O-])c(C(Cl)Cl)nn2-c2ccccc2)CC1	5755	-6	10	3	-2.0	3	5
O=C1NNC(c2ccccc2)=N/C1=C\c1ccccc1Cl	3851	-11	-4	10	6.6	-15	x
Cc1ccc(OC(=O)Cn2c(C(F)(F)F)nc3ccccc32)cc1	4593	-14	x	x	2.2	-3	-4
COc1ccc(/C=N/NC(=O)c2cccc(Br)c2)cc1CN1CCOCC1	4350	-24	x	x	x	x	11
NS(=O)(=O)c1ccc(NC(=O)CN2CCc3ccccc3C2)cc1	5415	-32	-5	12	-2.0	3	0
O=C1CC2(CCCC2)CC(=O)N1CCCCN1CCN(c2ncccn2)CC1	4522	-4	2	4	2.7	-1	-5
Cn1c(Cc2ccc3c(c2)OCO3)nnc1SCC(=O)NC1CCCC1	x	x	-15	-1	2.5	-2	2
O=[N+]([O-])c1cc(/C=N/N2CCN(c3ccccc3)CC2)ccc1Cl	2196	-62	x	x	x	x	-1
CCOC(=O)N/N=C(\CCC(=O)O)c1cccs1	3926	-17	x	x	x	x	-1
O=C(Nc1ccc(Cl)c(S(=O)(=O)N2CCOCC2)c1)c1ccc2c(c1)OCO2	3644	-11	-12	11	0.1	-13	x
CCc1noc(C)c1C(=O)NNC(=O)COc1ccc(Br)cc1	5847	-4	x	x	x	x	4
Cc1snc(SCC(=O)N/N=C(\N)COc2cccc(C(F)(F)F)c2)c1C#N	20365*	-22	x	x	x	x	3
CCCCCCC(=O)NN=C(C)Cc1ccccc1	x	x	17	5	2.8	8	x
CCC(CO)n1c(=S)[nH]c2cc(OC)c(OC)cc2c1=O (stereo not drawn)	3249	-26	19	-1	5.2	3	6
Cc1ccc(CCNC(=O)c2cc(S(=O)(=O)N3CCCCC3)c[nH]2)cc1	5018	-6	1	6	-0.3	0	7
Cc1c2cnn(CC(=O)N3CCC4(CC3)OCCO4)c(=O)c2c(C)n1Cc1ccccc1	2718	-6	8	4	-13	-28	-7
COc1ccc2ccccc2c1/C=N\n1c(C)cc(C)c(C(N)=O)c1=O	10357	-41	x	x	x	x	1
Cc1cc(C)nc(NC(=O)C(C)C)n1	2810	-10	14	10	4.4	1	3

Remaining list, next part.
SMILES	Bead autofluor	PrP 5UTR inh	Mtb hypoxia rep	Mtb hypoxia rep growth	RN4220 kill	Sa ugtP lethal	BJeLR viability
COc1cc(C(C)=O)ccc1OCCCN1CCC(Cc2ccccc2)CC1	3611	-25	-6	9	-0.1	0	26
Cc1ccc(C)c(NC(=O)C2CCCN2S(=O)(=O)c2ccc3c(c2)n(C)c(=O)c(=O)n3C)c1 (stereo not drawn)	6245	-8	11	9	6.4	2	-4
O=S(=O)(NCCN1CCOCC1)c1ccc2ccccc2c1	x	-12	0	-1	3.0	2	x
O=C(Nc1ccc(N2CCOCC2)nc1)c1cccs1	3294	-39	1	-4	8.0	6	1
O=C1CCC(C(=O)NC2(C(=O)NC3CCCCC3)CCCCC2)N1 (stereo not drawn)	4640	-24	x	x	1.4	3	-3
Cc1ccc2[nH]cc(C(=O)NCc3cccs3)c(=O)c2c1	10467	-20	6	2	5.8	-6	5
O=C(COc1ccc(C(=S)N2CCCC2)cc1)Nc1ccc(F)cc1	5139	-7	10	13	-4.6	12	0
CCN(CC)S(=O)(=O)N1CCC(C(=O)NCc2ccc(C)cc2)CC1	7988	1	6	11	2.5	7	1
CCN(CC)CCN(C)C(=O)CCc1nnc(-c2ccc(C)s2)o1	3485	1	10	3	4.2	7	5
CCc1ccc(NC(=O)CN2CCCN(S(=O)(=O)c3ccc(F)cc3)CC2)cc1	5793	-22	10	3	5.8	4	4
COCCNC(=O)C1CCC(CNS(=O)(=O)c2cccc3nsnc23)CC1 (stereo not drawn)	4594	-10	-1	-8	2.1	3	3
COC(=O)C1=CN(c2cccc(C(F)(F)F)c2)C=C(C(=O)OC)C1c1ccc(O)c(OC)c1	3873	-2	7	6	3.1	5	-4
